Screens as filed in PubChem.
Sa growth 42C = inhibitors of Staphylococcus aureus growth at 42 °C; S. aureus RN4220 growth, OD600, 20 h; stronger effect = lower value; relative growth, % (test concentration not listed); actives 0.53% (n = 170,000); AID 720641;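 active means growth at 42 °C up to 50% and 20 or more points under that at 30 °C, or under 10% at both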;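 further: 300 nL library stock went into each well; scaled to the means of positive and negative controls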
GIV-Gai inh = inhibitors of GIV GBA-motif binding to rat Galpha-i3. actives 0.42% (n = 210,000). P08753. AID 1224905. Galpha-i3/FITC-GIV peptide fluorescence polarization, 90 min; stronger effect = lower value; scaled: aluminum fluoride 0%, vehicle 100%. percent of control (FP), % (no concentration beside the values);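 active means replicate mean at 85% of control or lower, very high polarization wells dropped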;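 further: wells of about 15 µL received 100 nL stock; the first replicate is given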
Target sequence (P08753 whole entry, looked up): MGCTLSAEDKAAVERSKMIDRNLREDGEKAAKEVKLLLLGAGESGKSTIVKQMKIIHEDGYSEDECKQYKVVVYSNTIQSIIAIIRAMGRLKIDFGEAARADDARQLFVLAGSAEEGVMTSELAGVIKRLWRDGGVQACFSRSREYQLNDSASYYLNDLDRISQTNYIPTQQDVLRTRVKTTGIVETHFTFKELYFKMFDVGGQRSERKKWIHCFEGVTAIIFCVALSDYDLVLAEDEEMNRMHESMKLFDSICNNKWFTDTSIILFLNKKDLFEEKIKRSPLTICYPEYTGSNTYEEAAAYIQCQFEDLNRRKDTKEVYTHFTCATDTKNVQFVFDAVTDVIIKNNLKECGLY
HCMV NEC inh = cytomegalovirus nuclear egress complex inhibition. HTRF UL50-UL53 interaction, normalized percent inhibition. inhibition, % (no concentration beside the values). actives 0.15% (n = 190,000);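 active means both replicates at 50% or more, plus weaker picks with an unusually low signal ratio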;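 further: stock transfer was 100 nL into about 20 µL; 0% = negative control wells and 100% = wells with untagged competitor protein; inactives centre near -12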
Sa growth 42C second temp = further read-out of Sa growth 42C, marked with its call; relative growth, %; measured here: growth at 30 °C;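 optical density after 20 h as mean of two plates; 100% = untreated growth and lower means inhibition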
* marks the source's active call; other numbers are inactive results; / = not tested or not shown.

Structure	Sa growth 42C second temp	Sa growth 42C	HCMV NEC inh	GIV-Gai inh
CC(=O)Nc1ccccc1-c1nc2ccccc2n(CCOc2ccc(F)cc2)c1=O	/	/	-9	98
O=C(Nc1ccc(S(=O)(=O)Nc2nccs2)cc1)C1CC(=O)N(c2ccccc2)C1 (configuration not stated)	98	99	8	109
COc1ccc(OC)c(S(=O)(=O)Nc2cc3c(cc2C)n(C)c(=O)c(=O)n3C)c1	80	88	/	95
CCOC(=O)c1c(NC(=O)c2ccc(Cl)c(Cl)c2)sc(C(=O)Nc2ccccc2OC)c1C	/	/	-4	107
CCn1c(=O)c(=O)n(CC)c2cc(S(=O)(=O)NC3CCCCC3)ccc21	91	112	/	97
CC(C)(C)C(=O)NCCC1CC1(Cl)Cl (configuration not stated)	85	90	-16	99
COc1ccc(Cl)cc1Nc1nc2ccc(C(=O)c3ccccc3)cc2n2cnnc12	92	101	/	105
CC(=O)OC(CC(=O)O)Cc1nc2ccccc2s1 (configuration not stated)	88	80	-27	/
CC1CN(C(=O)Nc2ccc(C(=O)NCc3ccccc3F)cc2)c2ccccc2S1 (configuration not stated)	89	96	6	106
COc1ccc(OC)c(NC(=O)C2CCN(S(=O)(=O)c3ccc(C)cc3)CC2)c1	92	114	-21	107

Carrying on:
Structure	Sa growth 42C second temp	Sa growth 42C	HCMV NEC inh	GIV-Gai inh
CC(N)(Cc1ccc(O)cc1)C(=O)O (configuration not stated)	/	/	7	110
Cc1occc1C(=O)Nc1cnn(CCCC(=O)O)c1	102	101	-6	102
COc1ccc(F)cc1NC(=O)C1CCN(c2nc(-c3ccc(OC)c(OC)c3)no2)CC1	92	101	3	105
O=C(O)c1cnc(-c2ccccc2)nc1N1CCc2[nH]ncc2C1	92	110	-7	109
C/C(=C\c1nsc(Nc2ccc(F)c(Cl)c2)n1)N1CCC(C)CC1	82	104	/	104
COc1ccc(NC(=O)CSc2nc(C)c(C)c(=O)[nH]2)cc1OC	85	97	-26	105
COc1ccc(-c2nc(CSCC(=O)N3CCN(c4ccc(F)cc4)CC3)c(C)o2)cc1	92	91	-12	103
N#Cc1c(-c2ccc3c(c2)OCO3)cc(-c2ccccc2O)[nH]c1=O	77	80	-48	156
S=c1[nH]nc(C2CCCCC2)n1N=Cc1ccncc1	87	97	-20	/
CC(=O)NCc1ccc(C(=O)CSc2nc3ccccc3c(=O)n2-c2ccc(Cl)cc2)o1	75	91	-13	/

Further results.
Structure	Sa growth 42C second temp	Sa growth 42C	HCMV NEC inh	GIV-Gai inh
CN1C(=O)/C(=C/c2c(N3CCSCC3)nc3ccccn3c2=O)SC1=S	101	107	-4	186
CC(NC(=O)c1c2c(nc3ccccc13)C(=O)N(C1CCCCC1)C2)c1ccccc1 (configuration not stated)	80	86	/	102
COc1ccc(OC)c(C2C(C(=O)Nc3ccc(C)cc3C)=C(C)Nc3c(C(=O)Nc4ccc(F)cc4)cnn32)c1 (configuration not stated)	89	103	/	100
O=C1OC2CC3CC(C2)CC1C3	84	93	-37	104
Cc1ccc(-c2csc(=N)n2-c2ccccc2)cc1	93	94	-8	106
CC1(C)CC(=O)C(C=NCCC(=O)O)=C(O)C1	99	90	5	/
Cc1ccc(-c2noc(CCC(=O)Nc3ccc4c(c3)OCO4)n2)cc1	98	87	5	104
COc1ccccc1OCCOc1c(Br)cc(C=C2C(=O)N(C)C(=O)N(C)C2=O)cc1OC	/	/	77*	106
COc1cc(C2CC(=O)Nc3c2c(-c2ccccc2)nn3-c2ccccc2)ccc1O (configuration not stated)	/	/	-20	103
C[N+](C)(C)CCOP(=O)([O-])OP(=O)(O)OC[C@H]1OC(n2ccc(N)nc2=O)[C@H](O)[C@@H]1O (some centres not stated)	89	95	-30	/

Quoted at random: four records from the list, in no set order.
Structure	Sa growth 42C second temp	Sa growth 42C	HCMV NEC inh	GIV-Gai inh
COc1ccc(OC)c(C2C(C(=O)Nc3ccc(C)cc3C)=C(C)Nc3c(C(=O)Nc4ccc(F)cc4)cnn32)c1 (configuration not stated)	89	103	/	100
CC(NC(=O)c1c2c(nc3ccccc13)C(=O)N(C1CCCCC1)C2)c1ccccc1 (configuration not stated)	80	86	/	102
CC1(C)CC(=O)C(C=NCCC(=O)O)=C(O)C1	99	90	5	/
COc1cc(C2CC(=O)Nc3c2c(-c2ccccc2)nn3-c2ccccc2)ccc1O (configuration not stated)	/	/	-20	103

Next structures follow.
Structure	Sa growth 42C second temp	Sa growth 42C	HCMV NEC inh	GIV-Gai inh
COc1ccc(Cn2nnc3c(=O)[nH]c(C4CCCN(C(=O)c5ccc(C)cc5)C4)nc32)cc1 (configuration not stated)	81	101	-14	102
COc1ccc(CC(=O)Sc2nc3ccccc3o2)cc1	99	100	1	/
CC(C)Cc1nnc(SCc2cc(=O)n3[nH]c(-c4ccccc4)nc3n2)n1C	/	/	-13	105
c1ccc(COc2ccc3[nH]ccc3c2)cc1	40	113	-5	102
COc1ccc(OC)c(C2c3c(oc4ccc(C)cc4c3=O)C(=O)N2CCCN(C)C)c1 (configuration not stated)	90	105	/	96
COC(=O)c1ccccc1NC(=O)c1nn(-c2ccc(Cl)cc2)c(=O)n(C)c1=O	/	/	-37	105
COC(=O)c1ccc(NC(=O)CSC(=S)N2CCOCC2)cc1	89	108	-11	/
CCOc1ccc2nc(Cl)c(CN(Cc3ccco3)C(=O)N(C)C)cc2c1	88	89	-7	97
CCS(=O)(=O)N1CC(=O)N(c2ccc(Cl)cc2C)C(C)(C(=O)NC2CCCCCC2)C1 (configuration not stated)	88	107	/	100
CN(C)C(CNC(=O)c1cc(=O)c2ccc(Br)cc2o1)c1ccccc1 (configuration not stated)	/	/	-62	120

Next section:
Structure	Sa growth 42C second temp	Sa growth 42C	HCMV NEC inh	GIV-Gai inh
C=CCn1cnc2scc(-c3ccc(Cl)cc3)c2c1=O	77	116	-20	/
O=C(NCc1ccccn1)c1ccc(NC(=O)N2CCSc3ncccc32)cc1	/	/	-1	109
FC(F)(F)c1cnc(-n2cc(C3OCCO3)c3ccccc32)c(Cl)c1	/	/	-20	106
COC(=O)c1ccc(C(=O)OC)c(NC(=O)c2nn(-c3ccccc3C)c(=O)cc2OC)c1	/	/	11	102
COC(=O)N1N=C(c2ccccc2)CC1(O)C(F)(F)F (configuration not stated)	92	101	-21	100
O=C(Nc1cccc(Cl)c1)c1csnn1	85	98	-18	102
CCc1ccc(CNC(=O)c2ccc(Sc3ccc(C)cc3)c(NC(C)=O)c2)cc1	90	117	/	105
CCOc1ccccc1NC(=O)Cn1cnc2sc(C)c(S(=O)(=O)N3CCC(C)CC3)c2c1=O	95	102	-16	99
COc1ccc(-c2cc(C(=O)Nc3c(C)nn(Cc4ccccc4C)c3C)no2)cc1	90	97	-19	101
Cc1ccc2c(c1)c1nc3n(c(=O)c1n2CC(=O)N1CCCC1)CCS3	81	100	-19	105

Going on with the list.
Structure	Sa growth 42C second temp	Sa growth 42C	HCMV NEC inh	GIV-Gai inh
Cc1ccc(CNc2ncnc3onc(-c4ccc(F)cc4)c23)cc1	98	98	/	107
O=C1CC(C2CCCC=C2N2CCCCC2)C(=O)N1c1ccccc1 (configuration not stated)	89	97	-21	100
Cc1cc(Cl)ccc1NC(=O)CCS(=O)(=O)c1ccc2c(c1)CC(C)N2C(=O)C1CC1 (configuration not stated)	100	93	/	105
COc1ccc(-c2cc(C(=O)Nc3cc(C)nn3-c3ccccc3)no2)cc1OC	93	100	-27	104
COc1ccc2c(c1)CCc1c(C(=O)Nc3cnn(Cc4ccc(Cl)cc4Cl)c3)noc1-2	93	91	9	106
CCOc1cc(C2NC(=O)c3ccccc3O2)ccc1OCC(=O)OC (configuration not stated)	93	105	-23	106
Cc1c(C(=O)N2CCC(C)CC2)oc2ccc3c(c12)C(O)CC1(CCCC1)O3 (configuration not stated)	/	/	-31	104
CCOC(=O)c1ccc(CN(Cc2ccc(F)cc2)S(=O)(=O)c2cc(C(=O)Nc3ccccc3CC)ccc2F)cc1	100	139	/	103
CCOC(=O)c1c(C)n(-c2ccccc2)c2c1cc(OC(=O)c1ccc(C)c(C)c1)c1ccccc12	/	/	-16	102
COc1ccccc1-c1noc(=O)[nH]1	/	/	-30	96

(next part)
Structure	Sa growth 42C second temp	Sa growth 42C	HCMV NEC inh	GIV-Gai inh
O=C(O)COc1ccc(C(=O)NCc2ccccc2)cc1	100	91	-7	103
Cn1c(=O)oc2cc(NC(=O)c3ccc(F)cc3)ccc21	/	/	7	105
CN1CCC(N(C)C(=S)NC2CCCCC2)CC1	106	86	-1	105
O=C(COc1ccccc1-c1nnc(-c2ccccc2)o1)NCc1ccccc1	/	/	6	98
O=C(CSc1nc2c(cnn2-c2ccc(Cl)cc2)c(=O)[nH]1)Nc1ccc(F)cc1	88	101	-24	99
Cc1noc2ncnc(N3CCCC3CO)c12 (configuration not stated)	91	89	-18	97
Cc1sc2nc(SCC(=O)N3CCCCC3)[nH]c(=O)c2c1C	85	104	-20	103
Cc1ccc(CSc2nnc(/N=C/NO)s2)cc1	71	120	-12	99
Cc1cccc(-n2ncc3c(N4CCCC4)ncnc32)c1	77	103	-17	101
COc1ccccc1OCc1nn2c(CSc3ccccc3)nnc2s1	/	/	-11	108

(list continues)
Structure	Sa growth 42C second temp	Sa growth 42C	HCMV NEC inh	GIV-Gai inh
COC(=O)c1ccccc1NC(=O)Cc1noc2ccccc12	81	96	-18	102
O=C1COc2ccc(Cl)cc2N1Cc1cc2c(cc1Cl)OCO2	103	113	-4	102
O=C(O)c1ccc(CSc2n[nH]c(-c3ccco3)n2)cc1	65	108	5	78*
COc1ccc(CNC(=O)C2CCN(S(=O)(=O)c3ccc4nc5c(c(C(=O)O)c4c3)CC(C)CC5)CC2)cc1 (configuration not stated)	92	112	-22	103
COc1ccccc1/C=C/c1nc(C#N)c(NC2CCCCC2)o1	95	95	10	107
NS(=O)(=O)c1ccc(NC(=O)C2CC=CCC2C(=O)N2CCOCC2)cc1 (configuration not stated)	85	103	/	97
Cc1ccc(NC(=O)c2ccc(Br)o2)cc1	82	81	-29	/
O=C(Nc1ccc(SC(F)(F)F)cc1)n1ccc(C(F)(F)F)n1	7.0*	4.9*	-15	101
O=C(NCc1ccccc1)c1ccc2c(c1)nc1n2CCOC1	88	87	/	99
O=S(=O)(c1cc(OCC(F)(F)F)ccc1OCC(F)(F)F)n1cccc1	99	104	-2	108

Additional structures follow.
Structure	Sa growth 42C second temp	Sa growth 42C	HCMV NEC inh	GIV-Gai inh
CC(C)Oc1cccc(C(=O)Nc2ccc3oc(-c4ccccc4)nc3c2)c1	83	89	/	102
O=S(=O)(c1ccc(NC2CCN(Cc3ccccc3)CC2)nc1)N1CCCCC1	97	94	-16	/
Nc1cccc(-n2cccc2)c1	105	88	-22	114
COC(=O)c1scc(C#N)c1N=CN(C)C	84	98	-25	102
CCOC(=O)C1CCN(C(=O)CNC(=O)Cn2c(C)cc3ccccc3c2=O)CC1	94	88	-9	100
CCCCC(=O)Nc1cc2nn(-c3ccccc3)nc2cc1C	88	89	-17	97
O=C(CSc1nc2ccccc2o1)NCC1CCCCC1	81	102	-39	/
C=CCn1c(O)c(C=Nc2cccc(C)c2)c(=O)[nH]c1=S	125	108	-1	102
CCOC(=O)C1=C(Nc2ccc(F)cc2)C(=O)N(C2CCCCC2)C1	91	86	-4	99
O=C(CCN1C(=O)c2ccccc2C1=O)Oc1ccc(Cl)cc1	91	114	-18	105

As entered above.
For Sa growth 42C second temp, Nc1cccc(-n2cccc2)c1 has 105
For Sa growth 42C second temp, CCOC(=O)C1CCN(C(=O)CNC(=O)Cn2c(C)cc3ccccc3c2=O)CC1 has 94
For HCMV NEC inh, O=C(CSc1nc2ccccc2o1)NCC1CCCCC1 has -39

Next part
Structure	Sa growth 42C second temp	Sa growth 42C	HCMV NEC inh	GIV-Gai inh
O=C(OCn1nnc2ccccc2c1=O)C12CC3CC(CC(C3)C1)C2	87	111	/	97
FC(F)(F)c1ccccc1Nc1nc(-c2cccnc2)cs1	93	97	/	98
CCN(CC)Cc1ccc(Nc2ccnc3cc(Cl)ccc23)cc1O	84	89	-39	/
C=C(C)Cn1c(SCC(=O)O)nnc1-c1ccccc1	91	95	/	101
O=C1N(c2ccc3c(c2)OCO3)C(c2ccc3c(c2)OCO3)C1(F)F (configuration not stated)	94	110	-33	/
Cc1cccc(C(=O)Nc2cccc(C(=O)OCc3cc(=O)n4nc(C(C)C)sc4n3)c2)c1	95	79	/	111

Exported with two lines to a compound: entries from further up
Every second line gives: Sa growth 42C second temp | Sa growth 42C | HCMV NEC inh | GIV-Gai inh
- COc1ccc(-c2cc(C(=O)Nc3c(C)nn(Cc4ccccc4C)c3C)no2)cc1
→ 90 | 97 | -19 | 101
- FC(F)(F)c1ccccc1Nc1nc(-c2cccnc2)cs1
→ 93 | 97 | / | 98
